# NPYLR7 agonist: agonists of mosquito NPYLR7 receptor, primary screen, cell-based, Aedes aegypti, calcium fluorescence, mosquito biting behavior; HEK293T NPYLR7/Galpha15, GCaMP6s calcium fluorescence; activation, % at 10 µM; AID 1259423, 2018; hit rate 0.15% among 270,000; in the data active means activation above about 40%;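 further: 0% = vehicle and 100% = reference agonist at the receptor; some compounds past the cut are filed as inactive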
# NPYLR7 agonist max-min: also measured in NPYLR7 agonist; calls as there; activation, %; measured here: Max-Min RFU normalised activation; some inactives read as strong as hits;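 span of the calcium signal over five minutes; 0% = vehicle and 100% = native peptide agonist; compound fluorescence can raise it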
# Numbers without * were called inactive; & = joins results of further samples.
1	CCOc1ccc(NC(=O)C2CC=CCC2C(=O)N2CCc3ccccc3C2)cc1 (configuration not stated)
2	Cc1nn2c(nnc3c(=O)n(-c4ccc(F)c(F)c4)ccc32)c1-c1cccc(Cl)c1
3	CCc1nc2c(OCc3ccccc3)cccn2c1N(C)C(=O)c1cccc(OC)c1
4	CN1OC(C)(CC(=O)NCc2ccccc2)N=C1c1ccccc1 (configuration not stated)
5	FC(F)c1nnc2ccc(N3CCC4(CCOC4)C3)nn12 (configuration not stated)
6	CN(CC(=O)NCc1ccccc1CN1CCOCC1)Cc1c(F)cccc1Cl
7	COc1ccccc1-c1cccc(-c2cccc(NC(=O)c3ccc(F)c(Cl)c3)c2)n1
8	COc1ccc(Oc2cc(C(C)C)nc(SCc3ccccc3C)n2)cc1
Screen / compound no.	1	2	3	4	5	6	7	8
NPYLR7 agonist	-5.2	24.0	-2.9	0.1	4.8	6.7	6.5	-1.2
NPYLR7 agonist max-min	-12.1	15.1	4.3	-0.6	2.4	4.3	4.7	10.1

9	CN(Cc1n[nH]c2c1CCCC2)C(=O)CCNC(=O)c1ccccc1F
10	Cc1cccc2c(=O)n(CCC(=O)Nc3c4c(nn3C)CCC4)cnc12
11	Nc1nc(CCNC(=O)c2scc3c2CCCC3)cs1
12	COCC(C)NS(=O)(=O)c1sc2c(c1C(=O)OC)CCN(Cc1cc(C)ccc1C)C2 (configuration not stated)
13	Cc1cccc(CO[C@]2(C(=O)NCCCn3ccnc3)CC(OCc3cccc(F)c3F)[C@@H]3OC(C)(C)O[C@@H]3C2)c1 (some centres not stated)
14	COC(=O)[C@@H]1C[C@H](O)CN1Cc1nc2ccc(F)cc2o1
15	Cc1cc(=O)n2ncnc2n1Cc1ccccc1
16	COC(=O)Nc1snc(C)c1C(=O)O
Screen / compound no.	9	10	11	12	13	14	15	16
NPYLR7 agonist	-3.1	-1.4	-4.1	3.9	18.3	4.7	5.8	1.1
NPYLR7 agonist max-min	-6.5	-1.3	-17.2	-0.2	4.7	1.7	3.9	2.3

# Some of the entries so far, with values under each structure.
# Under each structure: NPYLR7 agonist | NPYLR7 agonist max-min
6) CN(CC(=O)NCc1ccccc1CN1CCOCC1)Cc1c(F)cccc1Cl
    6.7 | 4.3
7) COc1ccccc1-c1cccc(-c2cccc(NC(=O)c3ccc(F)c(Cl)c3)c2)n1
    6.5 | 4.7
8) COc1ccc(Oc2cc(C(C)C)nc(SCc3ccccc3C)n2)cc1
    -1.2 | 10.1
9) CN(Cc1n[nH]c2c1CCCC2)C(=O)CCNC(=O)c1ccccc1F
    -3.1 | -6.5
10) Cc1cccc2c(=O)n(CCC(=O)Nc3c4c(nn3C)CCC4)cnc12
    -1.4 | -1.3
11) Nc1nc(CCNC(=O)c2scc3c2CCCC3)cs1
    -4.1 | -17.2
12) COCC(C)NS(=O)(=O)c1sc2c(c1C(=O)OC)CCN(Cc1cc(C)ccc1C)C2 (configuration not stated)
    3.9 | -0.2
13) Cc1cccc(CO[C@]2(C(=O)NCCCn3ccnc3)CC(OCc3cccc(F)c3F)[C@@H]3OC(C)(C)O[C@@H]3C2)c1 (some centres not stated)
    18.3 | 4.7
14) COC(=O)[C@@H]1C[C@H](O)CN1Cc1nc2ccc(F)cc2o1
    4.7 | 1.7
15) Cc1cc(=O)n2ncnc2n1Cc1ccccc1
    5.8 | 3.9
16) COC(=O)Nc1snc(C)c1C(=O)O
    1.1 | 2.3

# (cont.)
17	Cc1cccc(C(=O)Oc2c(S(=O)(=O)c3ccccc3)c(C)nn2C(C)(C)C)c1
18	COc1cc2c(cc1OC)C1CN(C(=O)c3cccc(C(F)(F)F)c3)CC(=O)N1CC2 (configuration not stated)
19	O=C(Nc1ccc(Br)cc1)Nc1ccc(N2CCCC2)c(C(=O)NCc2ccccc2)c1
20	O=C(CCN1CCc2ccccc21)Nc1cccc(Cl)c1
21	CS(=O)(=O)NCCC(=O)N1CCCC(CCc2ccccc2F)C1 (configuration not stated)
22	Cc1ccccc1-c1nn(CN2CCC(C(=O)c3ccccc3)CC2)c(=S)n1C
23	CN(CC(=O)O)c1nc(Cc2ccc(Cl)cc2)ns1
24	COc1ccccc1CNC(=O)c1cnn(-c2cc(-c3nc(C)no3)ccn2)c1C
Screen / compound no.	17	18	19	20	21	22	23	24
NPYLR7 agonist	1.0	29.2	-6.0	9.7&-5.0	-4.1	6.3	-15.0	-11.4
NPYLR7 agonist max-min	35.8	24.5	4.5	7.3&-5.9	-4.0	7.3	-6.7	-13.1

25	CC(C)CN(CC(C)C)c1nc(N)c(C#N)c(CC#N)c1C#N
26	CCN(CC)CCn1c(C)cn2c3c(=O)n(CCc4ccccc4)c(=O)n(C)c3nc12
27	O=C(O)c1occc1-c1cccs1
28	CCOC(=O)c1nn(CCCc2ccccc2)c2c1CN(C(=O)c1cccnc1)CC2
29	O=C1NC(=O)C2CC=CCC12 (configuration not stated)
30	CC(=O)Nc1cc(S(=O)(=O)NC2CCC(C)CC2)ccc1F (configuration not stated)
31	CC(C)c1ccc(CC(=O)N2CCC2(C)C(=O)NS(=O)(=O)c2cccc(OC(F)F)c2)cc1 (configuration not stated)
32	COc1ccc(C(=O)C(C(c2ccccc2)N2CCOCC2)N2CCOCC2)cc1 (configuration not stated)
Screen / compound no.	25	26	27	28	29	30	31	32
NPYLR7 agonist	-1.4	-2.5	0.3	7.9	-0.3	1.0	0.3	1.0
NPYLR7 agonist max-min	-2.6	27.5	6.4	-8.0	-5.0	9.3	-4.4	-3.1

33	c1ccc(-c2nc3c(ccc4ccccc43)[nH]2)cc1
34	COc1ccc(C2=NOC(CN(Cc3cccc(Cl)c3)C(=O)C3CC3)C2)cc1OC (configuration not stated)
35	COCCN(Cc1ccc(OC)cc1)c1c(C)nc2ccc(C(=O)NCCCN(C)C)cn12
36	Brc1ccc(OCc2ccccc2)c(CNc2nn[nH]n2)c1
37	C=CCN(C/C=C/c1ccccc1)C(=O)c1c(C)cc(C)[nH]c1=O
38	O=C(NCCOc1cccnc1)c1ccc(OC2CCN(CCc3ccccc3)CC2)cc1
39	Cc1cccc(C(=O)Nc2c(C)nc3ccc(C)cn3c2=O)c1
40	COc1ccc(NC(=O)N(Cc2ccco2)C2CC2)cc1
Screen / compound no.	33	34	35	36	37	38	39	40
NPYLR7 agonist	6.5	16.6	-3.4	-15.8	-3.4	-3.8	3.7	0.9
NPYLR7 agonist max-min	8.2	21.7	-7.5	-20.9	-8.0	-3.6	1.9	-0.4

41	CC(C)(C)NC(=O)N(Cc1ccccc1Cl)CC1CC(c2ccccc2Cl)=NO1 (configuration not stated)
42	COc1cccc(C(CN2CCN(C(=O)c3cccn3C)CC2)OCc2cccc(Cl)c2)c1 (configuration not stated)
43	O=C(COc1coc(CN2CCc3ccccc32)cc1=O)N1CCCCC1
44	CCCc1cnc(C)nc1N1CCC(Cc2cccc(C(N)=O)c2)C1 (configuration not stated)
45	C=CCN1C[C@@H]2C[C@@H](C(N)=O)N(C(=O)CC(=O)OCC)c3cccc(c32)C1=O
46	CC(N)=C(C#N)C(=O)Cn1cc(C(F)(F)F)cc(Cl)c1=O
47	c1ccc2c(c1)CCCC2Sc1nnc(NCC2CCCO2)s1 (configuration not stated)
48	C=CCn1c(=NC(=O)c2ccc(S(C)(=O)=O)cc2)sc2cc(F)cc(F)c21
Screen / compound no.	41	42	43	44	45	46	47	48
NPYLR7 agonist	-4.3	7.0	2.3	5.3	0.7	14.2	1.1	5.6
NPYLR7 agonist max-min	9.8	0.4	1.7	-0.3	10.6	7.6	4.5	2.2

49	CN(C)c1ccc(NC(=O)NCc2cc(C#N)ccc2F)cn1
50	Cc1ccc(-c2nnc(SCCCC(=O)N3CCN(C(=O)c4cccc([N+](=O)[O-])c4)C(C)C3)n2-c2cccc(C)c2)cc1 (configuration not stated)
51	C=C(C)Cn1c(=O)c2c(nc3n2CCCN3c2ccc(C)cc2)n(C)c1=O
52	Cc1nc(SCCCn2c(=O)c3c(ncn3C)n(C)c2=O)c2c(C)c(C)sc2n1
53	O=C(CCN(Cc1ccco1)c1nc(-c2cccc(Br)c2)nc2ccccc12)NCc1cccc(C(F)(F)F)c1
54	COc1ccccc1CN(Cc1ccc2c(C)cc(=O)oc2c1)C1CC1
55	O=C(CCn1cnc2ccccc2c1=O)Nc1cccc2c1CCCC2
56	O=C(NC(Cc1ccccc1)C(=O)Nc1nnc(-c2cccc(Cl)c2)s1)c1cccc(Br)c1 (configuration not stated)
Screen / compound no.	49	50	51	52	53	54	55	56
NPYLR7 agonist	-2.1	8.1	4.0	-0.4	13.6	6.3	8.8	15.7
NPYLR7 agonist max-min	-3.7	6.1	-0.2	-0.7	24.3	5.7	4.3	5.4

57	O=C(O)c1cccc(NS(=O)(=O)c2cccc(C(=O)Nc3ccc(F)cc3)c2)c1
58	CCc1ccccc1NC(=O)c1c(NC(=O)c2cccc(Cl)c2)sc2c1CCCC2
59	OC(c1ccccc1)c1nncn1-c1cccc(F)c1 (configuration not stated)
60	CC1CCN(C2=C(c3c(-c4ccccc4)[nH]n(C)c3=O)C(=O)N(C3CCCCC3)C2=O)CC1
61	O=c1c2nnn(-c3ccc(F)cc3)c2ncn1Cc1ccc(Br)cc1
62	CN(C)CCN(Cc1ccccc1)C(=O)c1cc(-c2ccccc2F)nc2cc(-c3ccccc3)nn12
63	COCC1CCCN(C(=O)c2cn(CCc3ccccc3)nn2)C1 (configuration not stated)
64	CCN(CC)C(=O)Oc1ccc2c(ccn2Cc2c(Cl)ccc(C)c2F)c1-c1ccc(C#N)cc1
Screen / compound no.	57	58	59	60	61	62	63	64
NPYLR7 agonist	1.4	0.1	-8.2	22.8	1.4	-10.5	2.0	-0.6
NPYLR7 agonist max-min	-1.0	1.4	-11.5	15.5	5.7	-7.3	-2.1	2.4

65	COc1ccc(OC)c(-c2nc(CN3CCC(OCc4ccccn4)CC3)c(C)o2)c1
66	CCN1CCCC1CNC(=O)CCC1CCN(Cc2ccc3cc(Cl)ccc3n2)CC1 (configuration not stated)
67	CCC(C)C(=O)N1CCN(c2nc3cc(C)c(C)cc3nc2-c2ccccc2)CC1 (configuration not stated)
68	CCc1nn(C)c(CC)c1C(=O)NCc1ccco1
69	Cc1ccc2nc(-c3cccc(NC(=O)c4cccc(Cl)c4Cl)c3)oc2c1
70	Cn1ccnc1CN1CCN(c2ncccn2)CC1C(=O)O (configuration not stated)
71	O=C(CSCc1ccccc1)NCCn1ncccc1=O
72	O=C1Cc2cc(-c3cccc(-n4cccn4)c3)ccc2N1
Screen / compound no.	65	66	67	68	69	70	71	72
NPYLR7 agonist	1.0	9.6	5.4	-1.0	-1.1	4.1	1.6	-4.1
NPYLR7 agonist max-min	-1.0	4.1	1.5	8.6	-13.2	1.3	0.2	-4.7

73	O=C(CCc1ccccc1)N1CCN(C(C(=O)N2CCSCC2)C2CCCC2)CC1 (configuration not stated)
74	O=C(C1CCCC1)N1C(=Nc2ccccc2)SCc2ccccc21
75	O=c1c2ccccc2c(-c2ccccc2)nn1Cc1nc(C2CC2)n[nH]1
76	CCCCN1C(=O)C(=Cc2ccccn2)SC1=S
77	COCCN(CC(=O)Nc1nc(CC(=O)NCc2ccco2)cs1)C(=O)c1ccccc1
78	CC(=O)c1ccc(S(=O)(=O)N2CCN(C(c3ccccc3)c3ccc(Cl)cc3)CC2)cc1 (configuration not stated)
79	Brc1ccc(-c2noc(-c3ccc4c(c3)OCO4)n2)o1
80	CCOC(=O)c1cc(-c2ccc(N3CCN(C(=O)CCCCC(=O)OC)CC3)cc2)n(-c2cccc(F)c2)n1
Screen / compound no.	73	74	75	76	77	78	79	80
NPYLR7 agonist	-11.5	9.1	2.5	1.6	-7.7	-0.6	1.4	-5.0
NPYLR7 agonist max-min	16.8	7.2	19.2	8.6	-4.2	3.0	-2.6	-8.7

81	CCC1=NN(C(=O)c2ccccc2[N+](=O)[O-])C(O)(C(F)(F)F)C1 (configuration not stated)
82	CCOC(=O)CCn1c(=O)c2c(nc3n(-c4ccc(OCC)cc4)c(C)cn23)n(C)c1=O
83	Cc1c(N2C(=O)CSC23C(=O)Nc2ccccc23)c(=O)n(-c2ccccc2)n1C (configuration not stated)
84	O=C1CN(CCc2ccc(F)cc2)C2CS(=O)(=O)CC2N1c1cccc(Cl)c1 (configuration not stated)
85	Cc1cc([N+](=O)[O-])nn1CC(=O)N(C)Cc1ccccc1
86	Cc1c(C(=O)N(C)Cc2ccc(F)cc2)sc(=O)n1Cc1ccc(C(=O)N(C)C)cc1
87	O=C(CN1CCN(c2cnn(-c3nc4ccccc4[nH]3)c(=O)c2Cl)CC1)N1CCCCCC1
88	CCc1nc2ccc(C(=O)N(C)CCN(C)C)cn2c1N(C)CCC(C)C
89	CCc1nc2ccc(C(=O)NCc3ccc(OC)cc3)cn2c1N(C)C(=O)Cc1ccccc1
90	CCCCc1nc(N2CCN(C(=O)c3ccc(OC)cc3)CC2)c2c(-c3ccccc3)noc2n1
91	CC(=O)O[C@@H](C)C(=O)N1CCN(c2ncccc2C(=O)NCC2CCCO2)CC1 (some centres not stated)
Screen / compound no.	81	82	83	84	85	86	87	88	89	90	91
NPYLR7 agonist	3.7	-0.2	13.6	-8.0	-1.8	0.5	2.2	-4.9	-2.1	14.9	-4.4
NPYLR7 agonist max-min	1.9	-1.8	4.6	-9.7	-8.8	-1.7	-1.2	-14.2	-7.5	8.8	5.1

# Assay outcomes as filed in PubChem.

# An excerpt, so the mix of outcomes need not match the whole.
